From PubChem BioAssay
rRNA inh HTS – inhibits bacterial ribosomal RNA function over humanized ribosomes. E. coli WT GFP vs humanized-ribosome RFP mutants, fluorescence, 24 h; stronger effect = lower value; DMSO median 0, no signal -100. GFP signal change (wild-type ribosome), % (test concentration not listed). 1.6% of 350,000 active. AID 720706;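 active = significant combined selectivity score with lowered wild-type GFP, culture density cut under 30%, mutant RFP and density less affected; inactive = any of these conditions unmet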; note: one replicate is shown; some compounds called inactive have numbers as strong as hits
Beta cell apopt – beta cell apoptosis inhibition; protection from apoptosis, % (no concentration beside the values); 0.8% of 300,000 active; AID 435005; INS-1E cytokine-induced death, ATP luminescence, 48 h; percent of positive-control rescue, neutral wells zero;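 active = all replicates at 75% or more, or half of them and the mean; inconclusive = half reach 75% but not the mean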;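 note: 0% = cytokine-treated negative control wells and 100% = positive control rescue; higher means more ATP so stronger rescue from cytokine killing; wells of about 40 µL received 100 nL stock; the first replicate is given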
ALR inh – inhibitors of human sulfhydryl oxidase ALR; 3.8% of 290,000 active; P55789; purified ALR, DTT oxidation, H2O2 HRP-luminol luminescence; inhibition, % (concentration not given with the values);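 active = mean and each replicate at 75% or more; inconclusive = only one of the two met; inactive = neither met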;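 note: stock transfer was 7.5 nL into about 7.5 µL; 0% = neutral wells and 100% = wells with inactivated enzyme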
Target sequence (P55789 whole entry, looked up): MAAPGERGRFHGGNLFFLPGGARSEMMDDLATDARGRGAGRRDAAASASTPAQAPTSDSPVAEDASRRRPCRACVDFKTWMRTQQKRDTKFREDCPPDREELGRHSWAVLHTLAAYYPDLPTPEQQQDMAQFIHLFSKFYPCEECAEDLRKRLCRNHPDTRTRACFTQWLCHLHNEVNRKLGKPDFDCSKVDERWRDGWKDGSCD
FGF22 binding – shifts melting point of recombinant human FGF22; recombinant FGF22 thermal shift, SYPRO orange fluorescence; percent of sucrose octasulfate shift, DMSO zero; calls only at 9.99 µM; 1.5% of 340,000 active; AID 651658;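 active = melting point raised past a set limit in the mean and every replicate; inconclusive = no clear call; three in four hits are not shown here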
Target sequence (Q9HCT0 whole entry, looked up): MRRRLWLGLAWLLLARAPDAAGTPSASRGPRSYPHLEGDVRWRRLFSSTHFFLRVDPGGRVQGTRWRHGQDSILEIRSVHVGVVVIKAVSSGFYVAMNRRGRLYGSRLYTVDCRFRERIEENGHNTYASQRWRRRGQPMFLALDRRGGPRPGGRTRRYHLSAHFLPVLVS
AF4-AF9 inh – MLL-AF4/AF9 protein interaction inhibition; P42568; AlphaScreen, biotin-AF4 peptide binding to FLAG-AF9; inhibition, % at 10 µM; 0.47% of 350,000 active; AID 651704;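 active = every replicate reaching a set inhibition limit, whatever the replicate mean, cut at about 25% in these data; inconclusive = mean inhibition reaches that limit but some replicates miss it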;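 note: 0% = plate neutral control median and 100% = total signal loss; the record names both 10 and 1 µM as test concentration; the first replicate is given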
Target sequence (P42568 whole entry, looked up): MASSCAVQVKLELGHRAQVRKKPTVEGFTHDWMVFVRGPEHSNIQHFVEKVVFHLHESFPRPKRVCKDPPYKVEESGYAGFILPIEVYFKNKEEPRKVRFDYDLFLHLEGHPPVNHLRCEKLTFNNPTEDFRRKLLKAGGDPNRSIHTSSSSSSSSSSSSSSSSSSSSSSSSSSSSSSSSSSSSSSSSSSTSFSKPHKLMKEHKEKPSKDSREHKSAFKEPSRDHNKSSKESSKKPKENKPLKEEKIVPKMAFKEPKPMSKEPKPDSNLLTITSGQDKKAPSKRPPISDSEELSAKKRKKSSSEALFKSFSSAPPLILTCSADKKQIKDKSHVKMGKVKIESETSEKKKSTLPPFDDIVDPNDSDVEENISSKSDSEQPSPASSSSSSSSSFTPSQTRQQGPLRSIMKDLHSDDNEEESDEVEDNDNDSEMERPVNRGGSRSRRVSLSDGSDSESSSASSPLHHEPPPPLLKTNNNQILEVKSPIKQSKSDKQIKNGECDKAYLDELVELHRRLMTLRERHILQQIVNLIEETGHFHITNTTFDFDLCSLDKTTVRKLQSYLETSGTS
Calb FLC – affects C. albicans growth with fluconazole; C. albicans CaCi-2 (fluconazole-resistant clinical isolate) + fluconazole, Alamar Blue growth, 48 h; growth inhibition, % (concentration not given with the values); 0.57% of 300,000 active; AID 1979;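 active = most replicates above 75%; inconclusive = exactly half above 75%; inactive = most below 75%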;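 note: all wells also contain fluconazole at 8 µg/ml as a sub-toxic cotreatment; 0% = median of DMSO wells and 100% = median of geldanamycin control wells; wells of about 8 µL received 7.5 nL stock; the first replicate is given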
RanGTP-Imp inh – disruptors of Ran-importin-beta complex formation – biochemical, FRET, CFP-Ran, YFP-importin-beta, homogeneous, primary screen; cell-free CFP-Ran/YFP-importin-beta FRET ratio; inhibition, % (concentration not given with the values); 1.1% of 300,000 active; AID 2216;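 active = most replicates above 15%; inconclusive = exactly half above 15%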;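 note: 0% = DMSO wells and 100% = Ran loaded with GDP instead of GTP; wells of about 40 µL received 100 nL stock; the first replicate is given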
T cruzi inh – blocks replication of Trypanosoma cruzi; T. cruzi beta-gal in NIH3T3, luminescence, 90 h; inhibition, % (concentration not given with the values); 1.4% of 300,000 active; AID 1885;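 active = mean inhibition across valid replicates above about 55%, limit read from the data; inconclusive = mean below that limit but half or more replicates reach it; inactive = mean below it, under half of replicates reach it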;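 note: signal also drops with host cell toxicity which is not excluded here; 0% = plate median of DMSO wells and 100% = zero luminescence signal; higher percent means less beta-gal luminescence so fewer parasites; stock transfer was 50 nL into about 50 µL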
rRNA inh HTS OD600 – also measured in rRNA inh HTS; calls as there; OD600 change, %; measured here: OD600 growth;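 optical density of the mix in the first replicate; 0 = DMSO median and -100 = no signal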
rRNA inh HTS RFP – further read-out of rRNA inh HTS, marked with its call; RFP signal change, %; measured here: RFP humanized mutant strains;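 first replicate; 0 = DMSO median and -100 = no signal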
* marks the source's active call; other numbers are inactive results. Only part of the results is shown; rates above refer to the full screens.

`CC12CCC(C(=O)N3CCN(c4ccccc4)CC3)(CC1=O)C2(C)C` (stereo not drawn) gave Beta cell apopt 1, ALR inh 99*, Calb FLC -5, RanGTP-Imp inh -2.1 and T cruzi inh -1.
For COCCCNC(=O)C1CCN(S(=O)(=O)c2ccc3nc4c(c(C(=O)O)c3c2)CCCCC4)CC1 the results were rRNA inh HTS 2, Beta cell apopt -1, ALR inh -6, FGF22 binding inactive, AF4-AF9 inh 2.4, Calb FLC -9, RanGTP-Imp inh -1.0, T cruzi inh -7, rRNA inh HTS OD600 12 and rRNA inh HTS RFP 2.1.
Screening CCOC(=O)c1cccc(NC(=O)CCOc2ccccc2)c1 returned rRNA inh HTS -26, ALR inh -10, FGF22 binding inactive, AF4-AF9 inh -2.9, Calb FLC -29, RanGTP-Imp inh -0.8, T cruzi inh 21, rRNA inh HTS OD600 -33 and rRNA inh HTS RFP -13.
For CC1CCN(C(=O)COc2ccc(Nc3ccccc3)cc2)CC1 the results were rRNA inh HTS -16, Beta cell apopt -3, ALR inh 88*, FGF22 binding inactive, AF4-AF9 inh 5.2, Calb FLC -34, RanGTP-Imp inh 0.9, T cruzi inh 38, rRNA inh HTS OD600 -11 and rRNA inh HTS RFP -7.3.
Screening Oc1ccc(N=Nc2cccc(Cl)c2)cc1C=Nc1ccc(N2CCOCC2)cc1 returned rRNA inh HTS 1, FGF22 binding inactive, AF4-AF9 inh 3.2, Calb FLC 5, RanGTP-Imp inh -2.1, T cruzi inh 20, rRNA inh HTS OD600 6 and rRNA inh HTS RFP -4.4.
COc1ccccc1CNC(=O)COc1ccccc1OC was read as Beta cell apopt 5, ALR inh -13, Calb FLC 1, RanGTP-Imp inh 5.4 and T cruzi inh -4.
`COc1ccccc1NS(=O)(=O)c1c(C)nc2sccn2c1=O` gave rRNA inh HTS -3, Beta cell apopt -1, ALR inh -9, FGF22 binding inactive, AF4-AF9 inh -4.1, Calb FLC -6, RanGTP-Imp inh 4.8, T cruzi inh -16, rRNA inh HTS OD600 -2 and rRNA inh HTS RFP 0.4.
Screening Fc1ccccc1SCc1nnc(-c2ccccc2Br)o1 returned rRNA inh HTS -37, Beta cell apopt -3, ALR inh 5, FGF22 binding inactive, AF4-AF9 inh -6.7, Calb FLC -2, RanGTP-Imp inh inconclusive, T cruzi inh 17, rRNA inh HTS OD600 -66 and rRNA inh HTS RFP -11.
`CC(=O)NC(C)CCc1ccccc1` (stereo not drawn) gave rRNA inh HTS 6, Beta cell apopt 1, ALR inh 1, FGF22 binding inactive, AF4-AF9 inh -8.2, Calb FLC -2, RanGTP-Imp inh 2.5, T cruzi inh -22, rRNA inh HTS OD600 8 and rRNA inh HTS RFP 1.1.
O=C(/C=C/c1ccco1)N(Cc1ccccc1F)C1CCS(=O)(=O)C1 (stereo not drawn) was read as rRNA inh HTS 0, ALR inh 27, FGF22 binding inactive, AF4-AF9 inh -2.2, Calb FLC -5, RanGTP-Imp inh -1.0, T cruzi inh -6, rRNA inh HTS OD600 11 and rRNA inh HTS RFP -1.8.
Cc1csc2c(=O)[nH]cnc12 was read as rRNA inh HTS 11, Beta cell apopt -7, ALR inh -4, FGF22 binding inactive, AF4-AF9 inh -1.9, Calb FLC 0, RanGTP-Imp inh -0.5, T cruzi inh -11, rRNA inh HTS OD600 7 and rRNA inh HTS RFP -2.0.
`O=C(CCN=C1NS(=O)(=O)c2ccccc21)OCc1ccccc1` gave rRNA inh HTS 2, Beta cell apopt 3, FGF22 binding inactive, AF4-AF9 inh -0.8, Calb FLC -5, RanGTP-Imp inh -1.5, T cruzi inh -15, rRNA inh HTS OD600 9 and rRNA inh HTS RFP 0.6.
`CCOc1ccccc1OCC(=O)OCC(=O)c1c(N)n(CC(C)C)c(=O)n(C)c1=O` gave rRNA inh HTS 0, Beta cell apopt 1, ALR inh 2, FGF22 binding inactive, AF4-AF9 inh -2.5, rRNA inh HTS OD600 -7 and rRNA inh HTS RFP 4.5.
For COc1ccc(CNC(=O)COC(=O)CCOc2ccccc2)cc1 the results were Beta cell apopt -3, ALR inh -4, Calb FLC 0, RanGTP-Imp inh inconclusive and T cruzi inh -9.
CC(C)NC(=S)N/N=C1\CCCCc2ccccc21 was read as rRNA inh HTS -9, Beta cell apopt 0, ALR inh 6, FGF22 binding inactive, AF4-AF9 inh 2.1, Calb FLC -16, RanGTP-Imp inh -1.3, T cruzi inh 53, rRNA inh HTS OD600 -4 and rRNA inh HTS RFP 5.4.
`O=C(CCNS(=O)(=O)c1ccc(Cl)cc1)NCc1ccccn1` gave rRNA inh HTS 19, Beta cell apopt -2, ALR inh -6, FGF22 binding inactive, AF4-AF9 inh -1.7, Calb FLC 6, RanGTP-Imp inh 1.0, T cruzi inh -11, rRNA inh HTS OD600 7 and rRNA inh HTS RFP -2.0.
Cc1ccc(NC(=O)CSc2nnc(-c3ccccn3)n2C)cc1 was read as Beta cell apopt -5, ALR inh -4, Calb FLC 4, RanGTP-Imp inh -3.2 and T cruzi inh 1.
COc1ccc(C2=NN(C(=O)c3ccccc3)C(c3ccc(OC)c(OC)c3)C2)c(OC(C)=O)c1 (stereo not drawn) was read as rRNA inh HTS -26, Beta cell apopt 5, ALR inh 9, FGF22 binding inactive, AF4-AF9 inh 9.4, Calb FLC 5, RanGTP-Imp inh -3.0, T cruzi inh 17, rRNA inh HTS OD600 -41 and rRNA inh HTS RFP -3.9.
Screening CSc1nc2ccc(S(N)(=O)=O)cc2s1 returned rRNA inh HTS 1, Beta cell apopt 6, ALR inh -7, FGF22 binding inactive, AF4-AF9 inh -4.4, Calb FLC -1, RanGTP-Imp inh 0.9, T cruzi inh -5, rRNA inh HTS OD600 -1 and rRNA inh HTS RFP -11.
Screening C=CC[C@@H](CC(=O)NCCO)C(=O)N[C@H](COC(=O)[C@@H](CC=C)Cc1ccc(F)cc1)Cc1c[nH]c2ccccc12 returned rRNA inh HTS -12, Beta cell apopt -2, ALR inh 0, FGF22 binding inactive, AF4-AF9 inh -4.1, rRNA inh HTS OD600 -17 and rRNA inh HTS RFP 1.7.

The last 3 entries of the part above come first, to join the parts.
COc1ccc(C2=NN(C(=O)c3ccccc3)C(c3ccc(OC)c(OC)c3)C2)c(OC(C)=O)c1 (stereo not drawn) was read as rRNA inh HTS -26, Beta cell apopt 5, ALR inh 9, FGF22 binding inactive, AF4-AF9 inh 9.4, Calb FLC 5, RanGTP-Imp inh -3.0, T cruzi inh 17, rRNA inh HTS OD600 -41 and rRNA inh HTS RFP -3.9.
Screening CSc1nc2ccc(S(N)(=O)=O)cc2s1 returned rRNA inh HTS 1, Beta cell apopt 6, ALR inh -7, FGF22 binding inactive, AF4-AF9 inh -4.4, Calb FLC -1, RanGTP-Imp inh 0.9, T cruzi inh -5, rRNA inh HTS OD600 -1 and rRNA inh HTS RFP -11.
Screening C=CC[C@@H](CC(=O)NCCO)C(=O)N[C@H](COC(=O)[C@@H](CC=C)Cc1ccc(F)cc1)Cc1c[nH]c2ccccc12 returned rRNA inh HTS -12, Beta cell apopt -2, ALR inh 0, FGF22 binding inactive, AF4-AF9 inh -4.1, rRNA inh HTS OD600 -17 and rRNA inh HTS RFP 1.7.
Screening COc1cccc(C(=O)OCC(=O)NC23CC4CC(CC(C4)C2)C3)c1 returned rRNA inh HTS -13, Beta cell apopt -1, FGF22 binding inactive, AF4-AF9 inh -1.0, rRNA inh HTS OD600 -40 and rRNA inh HTS RFP -0.8.
O=C(NCC(c1cccnc1)N1CCN(c2ccc(F)cc2)CC1)c1ccccc1 (stereo not drawn) was read as Beta cell apopt 2, ALR inh 50, Calb FLC 10, RanGTP-Imp inh 2.7 and T cruzi inh 39.
Screening C/C=C/C(=O)Nc1cccc(C2=NOC3(C2)C[C@@H](C(N)=O)N(C(=O)/C(C)=C/C)C3)c1 (stereo partly drawn) returned Beta cell apopt -2, ALR inh 0, Calb FLC -8, RanGTP-Imp inh -6.4 and T cruzi inh -9.
Screening CCOc1ccc(-n2c(SCc3nc(-c4cccs4)no3)nnc2-c2ccncc2)cc1 returned ALR inh -5, Calb FLC -2, RanGTP-Imp inh inconclusive and T cruzi inh 64*.
CCOc1ccc(NS(=O)(=O)c2c(C)nc3sccn3c2=O)cc1 was read as rRNA inh HTS -4, Beta cell apopt -4, ALR inh 0, FGF22 binding inactive, AF4-AF9 inh -11, Calb FLC 0, RanGTP-Imp inh 3.4, T cruzi inh -14, rRNA inh HTS OD600 -20 and rRNA inh HTS RFP -0.8.
Cc1cnc(C(=O)OCC(=O)Nc2oc(-c3ccccc3)c(-c3ccccc3)c2C#N)cn1 was read as Beta cell apopt -5, ALR inh 97*, Calb FLC 23, RanGTP-Imp inh -0.9 and T cruzi inh 5.
Screening COc1ccc(/C=C2\CC/C(=C\c3ccc(OC)cc3OC)C2=O)c(OC)c1 returned rRNA inh HTS -7, Beta cell apopt -13, ALR inh 0, FGF22 binding inactive, AF4-AF9 inh -28, Calb FLC -1, RanGTP-Imp inh -136, T cruzi inh -4, rRNA inh HTS OD600 -11 and rRNA inh HTS RFP -9.8.
Cc1onc(-c2ccccc2Cl)c1C(=O)Nc1nnc(C(C)C)s1 was read as rRNA inh HTS -16, Beta cell apopt -3, ALR inh 66, FGF22 binding inactive, AF4-AF9 inh -1.7, Calb FLC -2, RanGTP-Imp inh 2.7, T cruzi inh 2, rRNA inh HTS OD600 -35 and rRNA inh HTS RFP -6.7.
Screening COc1ccc(NC(=O)CCC(=O)N2CCCC2)c([N+](=O)[O-])c1 returned rRNA inh HTS 20, Beta cell apopt -1, ALR inh -7, FGF22 binding inactive, AF4-AF9 inh -2.1, Calb FLC 2, RanGTP-Imp inh 1.5, T cruzi inh -2, rRNA inh HTS OD600 5 and rRNA inh HTS RFP -0.8.
Screening COc1ccc(NC(=O)Nc2ccc3c(c2)N(C)C(=O)CS3)cc1OC returned rRNA inh HTS 1, Beta cell apopt 1, ALR inh inactive, FGF22 binding inactive, AF4-AF9 inh 0.5, Calb FLC -6, RanGTP-Imp inh 4.6, T cruzi inh -10, rRNA inh HTS OD600 8 and rRNA inh HTS RFP -2.6.
CC(C)NC(=O)COC(=O)C1CSC2(c3ccc(Br)cc3)CCC(=O)N12 (stereo not drawn) was read as rRNA inh HTS 0, Beta cell apopt -1, ALR inh -4, AF4-AF9 inh -3.4, Calb FLC -15, RanGTP-Imp inh -2.5, T cruzi inh -6, rRNA inh HTS OD600 4 and rRNA inh HTS RFP 0.7.
O=[N+]([O-])c1ccccc1S(=O)(=O)NCCC1=CCCCC1 was read as Beta cell apopt 3, ALR inh -2, Calb FLC 18, RanGTP-Imp inh -1.3 and T cruzi inh -7.
`CC(=O)Nc1nnc(SCc2cccc(F)c2)s1` gave rRNA inh HTS 1, ALR inh -23, FGF22 binding inactive, AF4-AF9 inh 6.4, Calb FLC 9, RanGTP-Imp inh 1.0, T cruzi inh 2, rRNA inh HTS OD600 0 and rRNA inh HTS RFP -1.7.
`CN1/C(=C\C(=O)COC(=O)CNC(=O)c2ccc3ccccc3c2)C(C)(C)c2ccccc21` gave rRNA inh HTS -3, Beta cell apopt 40, ALR inh -52, FGF22 binding inactive, AF4-AF9 inh -2.2, Calb FLC -9, RanGTP-Imp inh -4.1, T cruzi inh 16, rRNA inh HTS OD600 -8 and rRNA inh HTS RFP 54.
